Measles CPE – protection of cells from measles virus; Measles virus-infected cells, CPE protection, absorbance; protection (pct of control), % at 4 µM; hit rate 1.5% among 140,000; AID 841; in the data active = protection mostly above about 24%, no sharp cut-off; inactive = mostly below about 26%; also: some compounds called inactive have numbers as strong as hits
HCT116 bCat-KO – beta-catenin-lacking colon tumor cell growth suppression; HCT116 beta-catenin knockout viability, CellTiter-Glo, 60 h; hits give low values; viability, % at 10 µM; hit rate 1.5% among 140,000;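 active = viability at or under a set limit, the compound median less 4 SD, cut at about 6% in these data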;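 also: 0% = Hyamine 1622 control at 20 µM and 100% = untreated cell control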
PTEN del growth – suppresses growth of cells with PTEN deletion; HCT116 PTEN-null viability, CellTiter-Glo, 60 h; hits give low values; hit rate 1.2% among 140,000; viability, % at 10 µM;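 active = viability at or below a set limit, 4 SD under the median of all tested compounds, cut at about 3.7% in these data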;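 also: PTEN knockout HCT116 line with beta catenin targeted HCT116 as companion control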
GALR2 blocker – antagonists of human galanin receptor 2 (GALR2); O43603; GALR2-expressing cells, antagonist mode; inhibition, % at 4 µM; hit rate 0.39% among 140,000; AID 828; in the data active = inhibition above about 27%;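 also: cells stimulated with galanin 1-16 at roughly its EC80; 0% = agonist challenge control and 100% = basal control without agonist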
Target sequence (O43603 whole entry, looked up): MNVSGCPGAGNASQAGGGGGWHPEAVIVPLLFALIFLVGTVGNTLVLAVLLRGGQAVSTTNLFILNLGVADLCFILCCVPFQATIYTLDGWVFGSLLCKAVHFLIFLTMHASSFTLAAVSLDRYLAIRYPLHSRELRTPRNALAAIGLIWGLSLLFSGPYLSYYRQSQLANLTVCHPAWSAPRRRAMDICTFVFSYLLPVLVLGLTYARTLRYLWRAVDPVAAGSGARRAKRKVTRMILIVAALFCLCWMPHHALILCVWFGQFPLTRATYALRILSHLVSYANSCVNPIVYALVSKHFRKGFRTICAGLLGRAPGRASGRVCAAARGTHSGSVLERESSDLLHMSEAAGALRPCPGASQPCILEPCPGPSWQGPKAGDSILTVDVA
NPY-Y2 antag – blocks the human neuropeptide Y Y2 receptor; inhibition, % at 2.7 µM; NPY-Y2 expressing cells, antagonist mode; hit rate 0.99% among 140,000; P49146; in the data active = inhibition above about 17%;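 also: 0% = vehicle with agonist challenge and 100% = reference antagonist with challenge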
An asterisk follows results filed as active; / = not tested or not shown; & = joins results of further samples. Not all compounds are listed, so the mix of outcomes need not match the whole.

Key to letters: A = Measles CPE; B = HCT116 bCat-KO; C = PTEN del growth; D = GALR2 blocker; E = NPY-Y2 antag
O=C1CC(c2ccc(O)cc2)Oc2cc(O)cc(O)c21 (stereo not drawn)
  A = 3.0	B = 101.1	C = 102.5	D = -7.6	E = -2.4
COc1cc2nc(N3CCN(C(=O)C4CCCO4)CC3)nc(N)c2cc1OC (stereo not drawn)
  A = 3.9&28.7	B = 78.4&86.8	C = 77.7&87.9	D = -2.9&-3.4	E = 1.4&2.8
c1ccc(-c2nc[nH]c2-c2ccccc2)cc1
  A = 7.6	B = 95.6	C = 100.2	D = 9.0	E = 3.1
c1coc(CNc2ncnc3nc[nH]c23)c1
  A = 30.8	B = 91.8	C = 92.6	D = 11.0	E = 3.8
Cc1nc2ccccc2c(-c2ccccc2)c1CC(=O)O
  A = 9.8	B = 93.2	C = 98.5	D = -2.0	E = 11.0
OCCN(CCO)c1nc(N2CCCCC2)c2nc(N(CCO)CCO)nc(N3CCCCC3)c2n1
  A = 16.2	B = 72.3	C = 63.6	D = 16.0	E = 2.4
Nc1nc(-c2ccccc2)cs1
  A = 5.2	B = 97.7	C = /	D = -1.2	E = 3.5
CCc1ccc(C(=O)CN2CCSC2=N)cc1
  A = 11.4	B = 77.8	C = 73.0	D = 6.0	E = 1.5
C[C@]12CC[C@@H]3c4ccc(OS(=O)(=O)O)cc4CC[C@H]3[C@@H]1CCC2=O
  A = 2.9	B = 90.5	C = 99.7	D = 2.3	E = 2.2
O=C(O)[C@@H]1CCCC[C@@H]1C(=O)N1CCc2ccccc2C1CN1C(=O)c2ccccc2C1=O (stereo partly drawn)
  A = 63.7*	B = 85.8	C = 90.5	D = -3.4	E = 3.2
c1ccc(-c2ccc(-c3cn4c(n3)CCC4)cc2)cc1
  A = 4.9	B = 57.0	C = 58.5	D = -4.0	E = 1.6
Cc1nn2cc(-c3ccc(Cl)cc3)nc2s1
  A = 21.3	B = 81.3	C = 84.0	D = 6.3	E = -1.4
Nc1ccc(Oc2ccc(Cl)cc2)cc1
  A = 27.0	B = 99.3	C = /	D = 5.9	E = 1.1
CN(C)C(=O)Oc1cccc([N+](C)(C)C)c1
  A = 5.6&31.8	B = 92.3&95.4	C = 97.1&106.5	D = -0.8&-3.6	E = -0.8&4.3
CCN(CC)CCNC(=O)c1ccc(N)cc1
  A = 0.8	B = 98.9	C = 109.1	D = 3.5	E = 1.0
O=C(O)Cc1cc(I)c(Oc2ccc(O)c(I)c2)c(I)c1
  A = 5.0	B = 87.9	C = 93.7	D = 10.7	E = 1.3

Whole records as entered above. Values in the order: Measles CPE	HCT116 bCat-KO	PTEN del growth	GALR2 blocker	NPY-Y2 antag
Listed for O=C(O)Cc1cc(I)c(Oc2ccc(O)c(I)c2)c(I)c1 : 5.0	87.9	93.7	10.7	1.3
Listed for CCN(CC)CCNC(=O)c1ccc(N)cc1 : 0.8	98.9	109.1	3.5	1.0
Listed for O=C(O)[C@@H]1CCCC[C@@H]1C(=O)N1CCc2ccccc2C1CN1C(=O)c2ccccc2C1=O (stereo partly drawn) : 63.7*	85.8	90.5	-3.4	3.2
Listed for c1ccc(-c2ccc(-c3cn4c(n3)CCC4)cc2)cc1 : 4.9	57.0	58.5	-4.0	1.6

An excerpt of these results, with values under each structure.
Every second line gives: Measles CPE, HCT116 bCat-KO, PTEN del growth, GALR2 blocker, NPY-Y2 antag
> OCCN(CCO)c1nc(N2CCCCC2)c2nc(N(CCO)CCO)nc(N3CCCCC3)c2n1
    16.2, 72.3, 63.6, 16.0, 2.4
> Nc1nc(-c2ccccc2)cs1
    5.2, 97.7, /, -1.2, 3.5

High-throughput results: PubChem, several laboratories
